Bioassay records from PubChem.
2A firefly – FMDV 2A StopGo reporter, firefly signal; HEK cells with a luciferase reporter of 2A StopGo recoding; Potency, µM (highest dose often 57.5 µM), inactives show at the top dose signal change, negative = less light; hit rate 0.23% among 120,000; AID 1745856; active = well fitted falling curve with a large enough effect; inconclusive = small, poorly fitted or top-dose-only effect; inactive = no such curve, though single readings can be large or run the other way; further: nearly all actives have a fitted effect of over 60% in size; overnight with compound
StopGo RLuc – FMDV 2A StopGo reporter, Renilla signal; Potency, µM (doses to about 57.5 µM), inactives show at the highest dose signal change, negative = less light; hit rate 0.32% among 120,000; HEK cells with a luciferase reporter of 2A StopGo recoding; active means well fitted falling curve with a large enough effect; inconclusive means small, poorly fitted or top-dose-only effect; inactive means no such curve, though single readings can be large or run the other way; further: nearly all actives have a fitted effect of over 55% in size; overnight with compound
Active calls of the source: *; ? = inconclusive; & = joins results of further samples; [ ] = remark or other dose. On the % scale 0 is the no-effect control and ±100 the full control effect; potency means the concentration at half of the fitted maximal effect. Only part of the results is shown. The share of hits here may be higher or lower than overall.

SMILES	2A firefly	StopGo RLuc
N#Cc1ccc(COc2ccc(Cl)cc2Br)cc1	102.1%[activator]	32.7%
O=C(NCCC1CCCO1)c1cc(-c2ccccc2)nc2ccccc12 (stereo not given)	25.7%	23.3%
CCOc1ccccc1NC(=O)N1CCC2(CC1)Oc1ccccc1C(=O)N2Cc1ccccc1F	-18.2%&0.0%	-4.6%&19.6%
Cc1ccccc1NCc1cc2ccccc2[nH]c1=O	105.3%[activator]	115.5%[activator]
COc1ccccc1CNC(=O)c1csc(NCc2ccccc2)n1	1.7%	16.5%
Cc1ccc(C(=O)NCC(=O)N(C)CC(=O)Nc2c(Cl)cccc2Cl)s1	5.2%	15.6%
Cc1ccc2c(c1)-c1onc(C(=O)N(C)c3ccc(F)cc3)c1CO2	84.3%[activator]	8.6%
CCn1c(CN2CCC(C)CC2)nc2cc(NC(=O)c3cccc([N+](=O)[O-])c3)ccc21	-4.1%	-12.3%
[O-]/[N+](=C\c1ccco1)c1ccccc1	24.1%	-2.6%
Cn1nc(-c2ccc(N3CCOCC3)c([N+](=O)[O-])c2)c2ccccc2c1=O	0.1%	-0.4%
CN(C(=O)CSc1nc2nc[nH]c2c(=O)[nH]1)c1ccc(F)cc1	-13.7%	-17.8%
COc1ccccc1N1CCN(S(=O)(=O)c2ccc3[nH]c4c(c3c2)CCCC4)CC1	-9.9%	24.2%
CC(=O)Oc1ccc(-c2nc(-c3cccc(Br)c3)no2)cc1	242.0%[activator]	8.5%
O=C(O)c1ccc(CNCc2c(Cl)cccc2Cl)cc1	168.7%[activator]	5.9%
Cc1nc2scc(C)n2c(=O)c1S(=O)(=O)Nc1ccc(N2CCOCC2)c(Cl)c1	?	-6.9%
Cc1cccc(CS(=O)(=O)N2CCC(C(=O)N3CCN(c4ccccc4F)CC3)CC2)c1	-25.3%	-14.6%
Cc1ccc(-n2c(=O)c3ccc(C(=O)NCc4ccccc4Cl)cc3n(CC(=O)Nc3ccc(C)cc3C)c2=O)cc1	-2.9%	-11.0%
O=C(Cn1nc2c(cc1=O)CCCC2)Nc1ccc(F)cc1F	0.3%&0.7%	-11.8%&-10.1%
CCOc1cccc(-c2nnc3n2N=C(c2ccc4ccccc4c2)CS3)c1	22.4%	40.1%[activator]
COc1ccc(C(=O)ON=C2c3ccccc3-c3ccccc32)cc1	0.0%	12.3%
N#Cc1ccc(Oc2ccc(C(=O)OCC(=O)c3ccccc3)cc2)cc1	16.6%	-8.9%
Cc1cc(C)n(-c2nc3c(c(=O)n(CC(=O)C(C)(C)C)c(=O)n3C)n2C)n1	5.4%	-3.2%
COCCN(Cc1cccs1)S(=O)(=O)c1cc(C(=O)O)ccc1Cl	-3.1%	18.7%
COc1cccc(-n2ccn(Cc3cccc(Cl)c3)c(=O)c2=O)c1	15.4%	29.1%
Cc1ccc(C(=O)OC(C)C(=O)N2CCc3ccccc32)cc1S(=O)(=O)N1CCCCC1 (stereo not given)	0.8%	22.8%
Cc1ccc(-n2c(SCC(=O)N3CCc4ccccc43)nc3c([nH]c4ccccc43)c2=O)cc1	63.8%[activator]	6.9%
CN(C)c1cc(CNC(=O)C2COc3ccccc3O2)ccn1 (stereo not given)	52.1%[activator]	1.7%
COc1ccc(-c2nc(CNC(=O)Nc3ccccc3OC)c(C)o2)cc1	40.1%[activator]	19.7%
O=C(CSc1ncnc2ccccc12)Nc1cccc2ccccc12	8.2%	-7.7%
OCCSCCSCCO	35.5%[activator]	16.7%
CC(C)C(C)(C#N)NC(=O)CN1CCCC1 (stereo not given)	12.4%	0.0%
Cc1ccccc1OCCSc1nc(C)c(Cc2ccccc2)c(=O)[nH]1	22.4%	-8.5%
CC1=C(C(=O)Nc2ccccc2)C(c2ccc(C(F)(F)F)cc2)n2ncnc2N1 (stereo not given)	-0.4%	2.9%
COc1ccc2nc(C)cc(Nc3ccc(Cl)c(Cl)c3)c2c1	-4.4%	?
O=C(CCC(=O)c1ccc(Cl)cc1)OCC(=O)c1ccc(Cl)cc1	-3.5%	33.1%
Cc1ccc2oc(N3CCN(C(=O)c4cccc(C#N)c4)CC3)nc2n1	-1.9%	-10.9%
C/C(=N/Nc1cc(C(F)(F)F)ccc1Cl)c1ccc(Cl)c(Cl)c1Cl	-8.3%	4.9%
Cc1cccc(Cn2c(SCc3ccc(C(=O)NCCc4ccccc4)cc3)nc3ccncc32)c1	20.5%	14.4%
O=c1[nH]c(=O)n(Cc2ccccc2)c2c1CN(Cc1ccco1)CN2	5.3%	0.0%
Cc1ccccc1OCC(=O)Nc1ccc2nc(SCCOc3ccccc3)sc2c1	-11.1%	-1.4%
O=C(Nc1nc(-c2c[nH]c3ccccc23)cs1)C1CCCC1	201.7%[activator]	7.5%
CCOc1ccc(S(=O)(=O)Nc2nc3ccccc3nc2Nc2ccc(C(=O)O)cc2)cc1	15.9%	8.3%
CCn1cc(CNC(=O)c2cc(-c3ccc(C)cc3)nc3ccc(Br)cc23)c(C)n1	-8.3%	-14.1%
COc1c(Br)cc(F)cc1NC(=O)Cc1coc2cc3c(cc12)CCC3	-0.9%	6.4%
CCOc1ccccc1NC(=O)COC(=O)c1sc2cc(F)ccc2c1Cl	-4.6%	-7.6%
Cc1cc(N(CCO)CCO)nc(NCc2ccccc2)n1	-1.6%	-1.9%
CSCCC(NC(=O)Cc1cccc(C(F)(F)F)c1)c1nc2ccccc2s1 (stereo not given)	14.1%	29.4%
CCOc1ccccc1NC(=O)C1CCN(S(=O)(=O)c2ccc3[nH]c4c(c3c2)CCCCC4)CC1	-18.6%	2.4%
CCc1c(C)nc2nncn2c1NCc1ccc(OC)cc1	-11.9%	-28.5%
COc1cccc(C(=O)Nc2ccccc2C(=O)OCc2cc(=O)n3c(C)csc3n2)c1	-21.0%	-8.8%
CCCCN1CCCC1C(=O)Nc1c(C)cc(C)cc1C (stereo not given)	?	-0.3%
CC(C)C(=O)Nc1ccc2c(c1)nc1n2CCOC1	32.2%[activator]	-0.4%
O=C(NCc1cccc(Cl)c1)C(=O)Nc1ccc2nc3n(c(=O)c2c1)CCCCC3	14.1%	69.6%[activator]
CC(Oc1cc(Cl)ccc1Cl)c1nc(-c2cccnc2)no1 (stereo not given)	6.1%	-3.0%
CN(CC#Cc1ccccc1)C(N)=NC(=O)/C=C/c1ccccc1	32.4%[activator]	7.0%
O=C(c1cn(Cc2ccccc2)nc1-c1ccc(Cl)cc1)N1CCN(CCO)CC1	-0.1%	27.4%
Cc1ccc(-n2[nH]c(CSc3nnnn3-c3ccccc3)cc2=O)cc1	-28.8%	?
CCS(=O)CCSc1nc(-c2ccccc2)cc(-c2ccccc2)c1C#N (stereo not given)	0.0%	35.9%
CC(=O)N1CCc2c(sc3c2c(=O)n(Cc2ccccc2)c(=O)n3Cc2ccccc2Cl)C1	-16.2%	-6.5%
O=C(CNc1ccc(Br)cc1)Nc1ccc(C(F)(F)F)cc1	-10.4%	55.6%[activator]

Looked up above.
`N#Cc1ccc(COc2ccc(Cl)cc2Br)cc1` | StopGo RLuc = 32.7%
`Cc1ccc(C(=O)NCC(=O)N(C)CC(=O)Nc2c(Cl)cccc2Cl)s1` | 2A firefly = 5.2%

(listing goes on)
SMILES	2A firefly	StopGo RLuc
CN(C)CCCNC(=O)c1cc2cc(Cl)ccc2[nH]1	8.9%	-8.5%
CN(Cc1nc2ccccc2o1)Cc1cccc(Cl)c1Cl	18.5%	-1.3%
CCC(=O)Nc1ccc2nc(SCc3ccc(C)cc3)sc2c1	0.0%	-5.9%
N#Cc1c(-c2ccccc2)cc(-c2cccs2)nc1SCC(O)CS(=O)Cc1ccccc1 (stereo not given)	11.1%	3.6%
COc1ccccc1C(=O)OCc1cc(=O)n2nc(-c3cccs3)sc2n1	-8.8%	-12.5%
Brc1ccccc1-c1nc(-c2ccccn2)no1	77.1%[activator]	-10.7%
CCSC1=N/C(=C\c2ccc(SC)cc2)C(=O)S1	-9.2%	-1.0%
Cc1cccc(-c2nc3cc(NC(=O)c4ccco4)ccc3o2)c1	2.2%	-7.4%
COc1cc(OC)cc(C(=O)Nc2cc(C)c(O)c(-c3nc4ccccc4o3)c2)c1	0.1%	-4.0%
Cc1cccc(OCC(=O)OCC(=O)Nc2sccc2C(N)=O)c1	-6.9%	-12.4%
COc1ccc(OC)c(NC(=O)N2CC(C)Oc3ccc(C)cc32)c1 (stereo not given)	-3.2%	8.4%
O=C(NC1CC1)C(NCc1ccccc1)c1ccc(F)cc1 (stereo not given)	-1.9%	6.6%
C=CCNc1nc(-c2c(N)n(CC(C)C)c(=O)n(C)c2=O)cs1	-6.2%	-12.5%
Cc1nn(CCC(=O)Nc2ccc(Cl)cc2)c(C)c1S(=O)(=O)N1CCCCC1	?	-7.8%
CCN1CCN(CCCNC(=O)c2cnn(-c3ccc(C)cc3)c2C2CCN(C(=O)OC(C)(C)C)CC2)CC1	-19.9%	-8.2%
O=C(Nc1ccc(S(=O)(=O)N2CCCCCC2)cc1)c1cc(=O)c2ccccc2o1	-22.1%	-1.3%
Cn1c(=O)c2c(nc(NCCO)n2Cc2ccc(Cl)cc2Cl)n(C)c1=O	-29.4%	?
COc1cc(C(=O)NCCNC(=O)c2cn(C)c3ccccc23)cc(OC)c1OC	8.9%	12.0%
Cc1cccc(C(=O)Nc2cc3nn(-c4ccc(C(C)C)cc4)nc3cc2C)c1	20.9%	0.1%
CC1=C(C(=O)Nc2ccc(C)cc2C)C(c2ccc(Br)cc2)NC(=O)N1 (stereo not given)	-3.1%	-7.3%
Cc1c(C(=O)N2CCN(C(=O)c3ccco3)CC2)[nH]c2c1C(=O)CC(C)(C)C2	0.3%	4.1%
CCOC(=O)c1cc2c(=O)n3ccccc3nc2n(C(C)C)c1=NC(=O)c1c(-c2c(F)cccc2Cl)noc1C	5.0%	6.2%
Cc1cc2nn(-c3ccc(F)cc3)nc2cc1NC(=O)c1ccc(C(C)(C)C)cc1	11.7%	-6.7%
Cc1ccc(/C=C/C(=O)NC2CCCC2)c(C)c1	192.2%[activator]	15.8%
COc1cccc(NC(=O)CSc2nc3c([nH]c4ccccc43)c(=O)n2-c2cccc(Cl)c2)c1	-9.3%	6.9%
CCOc1ccc(C(c2c(O)cc(C)n(Cc3ccco3)c2=O)N2CCCCC2)cc1 (stereo not given)	0.0%	21.4%
CC(NCc1cccs1)C1CC1 (stereo not given)	-3.0%	-1.0%
COc1cc(/C=C/C(=O)OCCOc2ccccc2F)ccc1OC(F)F	14.6%	-3.9%[1.06 µM]
Cc1cc(OCC(=O)NCc2cccnc2)c2c(C)cc(=O)oc2c1	-4.1%	-11.2%
Cc1cc(C)c(NC(=O)CN2C(=O)c3cccnc3Oc3ccc(Cl)cc32)c(C)c1	-14.1%	-8.9%
Cn1cc(C(=O)NCCc2ccc(Cl)cc2)c(=O)c2cc(S(=O)(=O)N3CCCCC3)ccc21	-15.4%	-11.2%
CCN(C(=O)c1ccco1)c1nc(-c2ccc(Br)cc2)cs1	44.6%[activator]	3.0%
COc1ccc(C2Sc3ccccc3NC3=C2C(=O)c2ccccc23)cc1 (stereo not given)	109.0%[activator]	199.2%[activator]
CC(=O)N1CCC(N(CCCOC(C)C)C(=O)Nc2ccc(C)c(C)c2)CC1	-4.1%	6.1%
O=C(NCC1(N2CCOCC2)CCSC1)Nc1ccc(F)cc1F (stereo not given)	0.3%	-3.1%
COc1ccc(Cl)c(N2CC(c3nc4ccccc4n3C(C)C)CC2=O)c1 (stereo not given)	2.8%	52.3%[activator]
CC(C)c1nnc(NC(=O)Cn2ccc3ccc(Cl)cc32)s1	15.8%	4.0%
CCCCOC(=O)C(C)Oc1ccc2c(=O)c(-c3ccccc3OC)coc2c1 (stereo not given)	0.0%	0.0%
O=C(c1ccc(-n2cnnn2)cc1)N(Cc1ccco1)Cc1cccs1	7.6%	88.3%[activator]
CCOC(=O)c1c(C)oc2ncnc(N3CCN(c4ccccc4OC)CC3)c12	5.0%	-9.5%

2 entries drawn at random from those above, as already listed:
SMILES	2A firefly	StopGo RLuc
O=C(NCC1(N2CCOCC2)CCSC1)Nc1ccc(F)cc1F (stereo not given)	0.3%	-3.1%
Cc1cc2nn(-c3ccc(F)cc3)nc2cc1NC(=O)c1ccc(C(C)(C)C)cc1	11.7%	-6.7%

(list continues)
SMILES	2A firefly	StopGo RLuc
CN(C)CCNC(=O)c1ccc2c(c1)NC(=O)C(CS(=O)(=O)Cc1cccc(Br)c1)N2 (stereo not given)	0.0%	-12.7%
CSC(C)C(=O)Nc1ccc(I)cc1 (stereo not given)	78.4%[activator]	11.0%
Cc1ccc(/C=C/C(=O)c2ccc(O)c(CCCl)c2)c(C)c1	104.1%[activator]	21.7%
COc1ccc(CNC(=O)CSCc2ccc(C)cc2)c(OC)c1	-1.0%	-1.6%
Cc1ccc(C2=C(O)C(=O)N(c3ccc(F)cc3)C2c2ccccc2)cc1 (stereo not given)	-16.0%	7.2%
CCCCCn1c(=O)[nH]c2cc(C(=O)NC(C)CC)ccc2c1=O (stereo not given)	-13.1%	-5.6%
CC(C)(C)c1ccc(/C=N/OCC(=O)N2CCC(Cc3ccccc3)CC2)cc1	?	-0.1%
COc1ccccc1NC(=O)c1cccc(S(=O)(=O)N2CCCCCC2)c1	-29.6%	65.8%[activator]

6 entries from above, comma-delimited:
molecule,2A firefly,StopGo RLuc
COc1ccccc1NC(=O)c1cccc(S(=O)(=O)N2CCCCCC2)c1,-29.6%,65.8%[activator]
COc1ccc(CNC(=O)CSCc2ccc(C)cc2)c(OC)c1,-1.0%,-1.6%
CN(C)CCNC(=O)c1ccc2c(c1)NC(=O)C(CS(=O)(=O)Cc1cccc(Br)c1)N2 (stereo not given),0.0%,-12.7%
Cc1ccc(/C=C/C(=O)c2ccc(O)c(CCCl)c2)c(C)c1,104.1%[activator],21.7%
CCCCCn1c(=O)[nH]c2cc(C(=O)NC(C)CC)ccc2c1=O (stereo not given),-13.1%,-5.6%
CSC(C)C(=O)Nc1ccc(I)cc1 (stereo not given),78.4%[activator],11.0%
